# Screens from PubChem BioAssay.
# FGF22 binding: binders of recombinant human FGF22 by thermal shift. SYPRO orange fluorescence; percent of sucrose octasulfate shift, DMSO zero. 340,000 compounds, 1.5% hits. Q9HCT0. calls only at 9.99 µM;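 active means melting point raised past a set limit in the mean and every replicate; three in four hits are not shown here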
# Target sequence (Q9HCT0 whole entry, looked up): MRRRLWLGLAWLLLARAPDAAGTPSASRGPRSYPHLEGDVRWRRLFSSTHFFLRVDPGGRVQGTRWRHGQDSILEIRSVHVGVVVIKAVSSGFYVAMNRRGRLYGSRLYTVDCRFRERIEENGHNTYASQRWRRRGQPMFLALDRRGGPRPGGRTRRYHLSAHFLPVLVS
# Calls only; i = inactive.
SMILES,FGF22 binding
Cc1noc(C)c1NC(=O)N(C)C[C@@H]1Oc2ccc(NC(=O)Nc3ccccc3)cc2C(=O)N([C@H](C)CO)C[C@H]1C,i
COc1ccc(CN(C)C[C@H]2Oc3ccc(NC(=O)Nc4ccc(F)cc4)cc3C(=O)N([C@H](C)CO)C[C@@H]2C)cc1,i
O=C(Nc1cc(F)ccc1F)N1CCCCN2[C@@H](CO)[C@@H](c3ccc(-c4ccccc4)cc3)[C@@H]2C1,i
CC(C)NC(=O)N(C)C[C@H]1Oc2c(NC(=O)Nc3ccc(F)cc3)cccc2C(=O)N([C@H](C)CO)C[C@@H]1C,i
COc1ccc2c3c([nH]c2c1)[C@@H](CO)N(S(C)(=O)=O)CC31CCN(C(=O)c2cccnc2)CC1,i
O=C(Nc1ccccc1F)N[C@H]1CC[C@@H](CCNC(=O)C2CCCCC2)O[C@@H]1CO,i
C[C@H](CO)N1C[C@H](C)[C@H](CN(C)S(C)(=O)=O)Oc2ccc(NC(=O)c3ccncc3)cc2C1=O,i
CN(C)CC(=O)Nc1ccc2c(c1)[C@@H]1C[C@@H](CC(=O)N(C)C)O[C@H](CO)[C@@H]1O2,i
C[C@@H]1CCCCO[C@@H](CN(C)C)[C@H](C)CN([C@H](C)CO)C(=O)c2cc(NC(=O)NC3CCCCC3)ccc2O1,i
O=C(C[C@@H]1C[C@@H]2c3cc(NC(=O)CC4CC4)ccc3O[C@@H]2[C@H](CO)O1)NCc1cccc(F)c1,i
CCC(=O)N1CC2(CCN(C(=O)c3cccnc3)CC2)c2c([nH]c3cc(OC)ccc23)[C@H]1CO,i
C[C@@H]1CN([C@H](C)CO)C(=O)c2cc(NC(=O)c3ccccc3)ccc2O[C@@H](C)CCCCO[C@@H]1CN(C)S(=O)(=O)c1cccs1,i
C[C@]12CCC3C4(C=CC5(C=C4C(=O)c4ccc(F)c(F)c4)C[C@@H](O)CC[C@]35C)C1CC[C@@]2(O)CN1CCC(C(N)=O)CC1 (stereo partly drawn),i
COc1ccc(NC(=O)Nc2ccc3c(c2)C(=O)N([C@H](C)CO)C[C@H](C)[C@@H](CN(C)Cc2ccncc2)O3)cc1,i
O=C(NC[C@@H]1N[C@@H](CO)[C@@H]1c1ccc(C2=CCCC2)cc1)c1ccccc1,i
Cc1cccc(-c2ccc([C@@H]3[C@H](CO)N4CCCCN(C(=O)NC(C)C)C[C@@H]34)cc2)c1,i
Cc1ccc(S(=O)(=O)N(C)C[C@H]2Oc3ccc(NC(=O)Cc4ccccc4)cc3C(=O)N([C@H](C)CO)C[C@@H]2C)cc1,i
C[C@H](CO)N1C[C@H](C)[C@H](CN(C)C)Oc2cc(-c3ccncc3)ccc2S1(=O)=O,i
CCCN1C[C@H](C)[C@H](OC)CN(C)C(=O)c2ccc(NC(=O)Nc3cccc(F)c3)cc2OC[C@H]1C,i
Cc1noc(C)c1S(=O)(=O)Nc1ccc2c(c1)C(=O)N([C@H](C)CO)C[C@@H](C)[C@@H](CN(C)S(=O)(=O)c1ccccc1)OCCCC[C@H](C)O2,i
C[C@H](CO)N1C[C@H](C)[C@H](CN(C)Cc2ccc(C(=O)Nc3ccccc3N)cc2)Oc2ccc(NC(=O)Cc3ccccc3)cc2CC1=O,i
CNC[C@H]1OCCCC[C@H](C)Oc2ccc(NS(=O)(=O)c3ccc(F)cc3)cc2C(=O)N([C@H](C)CO)C[C@@H]1C,i
C[C@@H]1CN([C@@H](C)CO)C(=O)Cc2cc(NC(=O)Nc3ccc4c(c3)OCO4)ccc2O[C@@H]1CN(C)Cc1ccc(C(=O)O)cc1,i
C[C@H](CO)N1C[C@H](C)[C@H](CN(C)Cc2ccc(Oc3ccccc3)cc2)Oc2ccc(NC(=O)Nc3ccc4c(c3)OCO4)cc2C1=O,i
O=C(Nc1ccccc1)N[C@@H]1CC[C@H](CCn2cc(C3(O)CCCC3)nn2)O[C@H]1CO,i
C[C@@H]1CCCCO[C@@H](CN(C)CC2CC2)[C@@H](C)CN([C@H](C)CO)C(=O)c2cc(NS(C)(=O)=O)ccc2O1,i
C[C@H](CO)N1C[C@H](C)[C@H](CN(C)S(=O)(=O)c2cccc(F)c2)Oc2ncccc2C1=O,i
Cc1noc(C)c1NC(=O)Nc1ccc2c(c1)C(=O)N([C@H](C)CO)C[C@H](C)[C@@H](CN(C)Cc1ccncc1)OCCCC[C@H](C)O2,i
CN(C)C(=O)c1cccc(-c2ccccc2[C@@H]2[C@H](C#N)N(C(=O)C3CCCCC3)[C@H]2CO)c1,i
O=C(N[C@@H]1C=C[C@H](CC(=O)N2CCCCC2)O[C@@H]1CO)c1ccc2c(c1)OCO2,i

# Another view of part of the listing above:
molecule	FGF22 binding
CN(C)C(=O)c1cccc(-c2ccccc2[C@@H]2[C@H](C#N)N(C(=O)C3CCCCC3)[C@H]2CO)c1	i
C[C@@H]1CN([C@@H](C)CO)C(=O)Cc2cc(NC(=O)Nc3ccc4c(c3)OCO4)ccc2O[C@@H]1CN(C)Cc1ccc(C(=O)O)cc1	i

# (continued)
SMILES,FGF22 binding
Cc1ccc(S(=O)(=O)NCC[C@@H]2CC[C@@H](NC(=O)CC3CC3)[C@@H](CO)O2)cc1,i
O=C(C[C@H]1CC[C@H]2[C@@H](COC[C@@H](O)CN2C(=O)c2ccccc2)O1)NCc1ccc(-c2ccccc2)cc1,i
COCC(=O)N1[C@H](C#N)[C@@H](c2ccc(-c3cccc(F)c3)cc2)[C@@H]1CO,i
Cc1ccccc1-c1ccc2c(c1)O[C@@H](CN(C)C(=O)Nc1ccccc1)[C@H](C)CN([C@@H](C)CO)S2(=O)=O,i
Cc1noc(C)c1S(=O)(=O)Nc1ccc2c(c1)C(=O)N([C@@H](C)CO)C[C@H](C)[C@@H](CN(C)Cc1ccc3c(c1)OCO3)OCCCC[C@@H](C)O2,i
O=C(Nc1ccc2c(c1)[C@@H]1C[C@H](CC(=O)N3CCOCC3)O[C@H](CO)[C@@H]1O2)NC1CCCC1,i
CO[C@@H]1CN(C)C(=O)c2ccc(NC(=O)Nc3cc(F)ccc3F)cc2OC[C@H](C)N(C(=O)c2cnccn2)C[C@H]1C,i
Cc1ccccc1S(=O)(=O)N1CCCCN2[C@@H](CO)[C@H](c3ccc(-c4cccc(F)c4)cc3)[C@@H]2C1,i
COc1ccc(S(=O)(=O)N[C@@H]2CC[C@@H](CC(=O)NCc3ccccc3F)O[C@H]2CO)cc1,i
COc1ccc(S(=O)(=O)N(C)C[C@H]2OCCCC[C@@H](C)Oc3ccc(NC(=O)c4ccccc4)cc3C(=O)N([C@@H](C)CO)C[C@@H]2C)cc1,i

# Some of the entries so far, with tabs:
compound	FGF22 binding
COc1ccc(S(=O)(=O)N[C@@H]2CC[C@@H](CC(=O)NCc3ccccc3F)O[C@H]2CO)cc1	i
Cc1ccccc1S(=O)(=O)N1CCCCN2[C@@H](CO)[C@H](c3ccc(-c4cccc(F)c4)cc3)[C@@H]2C1	i
Cc1ccccc1-c1ccc2c(c1)O[C@@H](CN(C)C(=O)Nc1ccccc1)[C@H](C)CN([C@@H](C)CO)S2(=O)=O	i
Cc1noc(C)c1S(=O)(=O)Nc1ccc2c(c1)C(=O)N([C@@H](C)CO)C[C@H](C)[C@@H](CN(C)Cc1ccc3c(c1)OCO3)OCCCC[C@@H](C)O2	i

# Returning to the listing, starting 5 compounds before the break.
SMILES,FGF22 binding
O=C(Nc1ccc2c(c1)[C@@H]1C[C@H](CC(=O)N3CCOCC3)O[C@H](CO)[C@@H]1O2)NC1CCCC1,i
CO[C@@H]1CN(C)C(=O)c2ccc(NC(=O)Nc3cc(F)ccc3F)cc2OC[C@H](C)N(C(=O)c2cnccn2)C[C@H]1C,i
Cc1ccccc1S(=O)(=O)N1CCCCN2[C@@H](CO)[C@H](c3ccc(-c4cccc(F)c4)cc3)[C@@H]2C1,i
COc1ccc(S(=O)(=O)N[C@@H]2CC[C@@H](CC(=O)NCc3ccccc3F)O[C@H]2CO)cc1,i
COc1ccc(S(=O)(=O)N(C)C[C@H]2OCCCC[C@@H](C)Oc3ccc(NC(=O)c4ccccc4)cc3C(=O)N([C@@H](C)CO)C[C@@H]2C)cc1,i
O=C(C[C@H]1CC[C@@H](NC(=O)c2ccncc2)[C@H](CO)O1)NCCc1ccncc1,i
CCC(=O)Nc1ccc2c(c1)C(=O)N(C)C[C@@H](OC)[C@@H](C)CN(Cc1ccccc1OC)[C@@H](C)CO2,i
CN(C)C(=O)c1ccc(-c2ccc3c(c2)[C@H]2[C@H](CCN2C(=O)C2CCC2)[C@H](CO)N3C)cc1,i
CCC(=O)Nc1ccc2c(c1)C(=O)N(C)[C@@H]1CC[C@@H](CC(=O)NCCOC)O[C@@H]1CO2,i
C[C@H]1CCCCO[C@H](CN(C)C(=O)NC2CCCCC2)[C@@H](C)CN([C@@H](C)CO)C(=O)c2cc(NS(=O)(=O)c3cn(C)cn3)ccc2O1,i
COc1ccccc1CNC(=O)C[C@@H]1C=C[C@@H](NC(=O)CC2CC2)[C@@H](CO)O1,i
C[C@H]1CN([C@@H](C)CO)C(=O)Cc2cc(NC(=O)CCN3CCOCC3)ccc2O[C@H]1CN(C)S(=O)(=O)c1ccc(Cl)cc1,i
CC=Cc1ccc2n(c1=O)C[C@H]1[C@H](CO)[C@@H](C(=O)NC3CCCC3)N(Cc3ccccc3)[C@@H]21 (mixture of isomers),i
C[C@@H]1CN([C@H](C)CO)S(=O)(=O)c2ccc(/C=C/c3ccccc3)cc2O[C@H]1CN(C)C(=O)c1cccnc1,i
C[C@H](CO)N1C[C@H](C)[C@@H](CN(C)Cc2ccc(Oc3ccccc3)cc2)Oc2ccc(NS(=O)(=O)c3ccc(F)cc3)cc2CC1=O,i
CCCNC(=O)C[C@@H]1CC[C@@H]2[C@H](COC[C@@H](O)CN2Cc2ccccc2F)O1,i
C[C@@H]1CN([C@H](C)CO)C(=O)c2cccc(NC(=O)Nc3ccccc3)c2O[C@H]1CN(C)C(=O)NC1CCCCC1,i
C[C@@H]1CN([C@@H](C)CO)C(=O)c2cc(NC(=O)c3ccccc3)ccc2O[C@@H](C)CCCCO[C@@H]1CN(C)S(=O)(=O)c1cccs1,i
CN1CCN(C(=O)C[C@@H]2CC[C@H]3[C@@H](COC[C@H](O)CN3CC3CCOCC3)O2)CC1,i
COc1ccc(S(=O)(=O)Nc2ccc3c(c2)C(=O)N([C@@H](C)CO)C[C@@H](C)[C@@H](CN(C)S(C)(=O)=O)O3)cc1,i
C[C@@H]1CN([C@H](C)CO)C(=O)c2cc(NC(=O)Nc3ccccc3)ccc2O[C@H]1CN(C)S(=O)(=O)c1cccs1,i
O=C(Nc1cc(F)ccc1F)N[C@H]1CC[C@H](CCn2cc(C3CC3)nn2)O[C@H]1CO,i
CC(C)NC(=O)Nc1ccc2c(c1)C(=O)N([C@H](C)CO)C[C@@H](C)[C@H](CN(C)Cc1ccc(C(F)(F)F)cc1)OCCCC[C@H](C)O2,i
C[C@@H]1CN([C@@H](C)CO)C(=O)c2cc(NC(=O)Nc3ccc4c(c3)OCO4)ccc2O[C@@H](C)CCCCO[C@H]1CN(C)C(=O)CCCN(C)C,i
CO[C@H]1CN(C)C(=O)c2cc(NS(=O)(=O)c3ccccc3F)ccc2OC[C@@H](C)NC[C@@H]1C,i
COc1ccc(S(=O)(=O)Nc2ccc3c(c2)C(=O)N([C@@H](C)CO)C[C@@H](C)[C@H](CN(C)Cc2ccncc2)OCCCC[C@H](C)O3)cc1,i
CCCC#Cc1ccc2c(c1)O[C@@H](CN(C)C(=O)NC(C)C)[C@H](C)CN([C@H](C)CO)S2(=O)=O,i
CC(C)CC#Cc1ccc2c(c1)O[C@H](CN(C)C(=O)Nc1ccccc1F)[C@@H](C)CN([C@@H](C)CO)S2(=O)=O,i
O=C(C[C@H]1CC[C@@H]2[C@H](COC[C@@H](O)CN2C(=O)c2cccnc2)O1)Nc1ccc(-c2ccccc2)cc1,i
C[C@H]1CN([C@@H](C)CO)S(=O)(=O)c2ccc(/C=C/c3ccccc3)cc2O[C@@H]1CN(C)C(=O)Nc1ccc(F)cc1,i
CN1C(=O)c2cc(NC(=O)C3CCOCC3)ccc2OC[C@H]2O[C@@H](CC(=O)NCC3CC3)CC[C@@H]21,i
CCC(=O)N1[C@@H]2CN(C(=O)c3ccc4c(c3)OCO4)c3ccccc3[C@@H]2[C@@H]1CO,i
CCC(=O)N(C)C[C@@H]1Oc2cc(C#CCC(C)C)ccc2S(=O)(=O)N([C@H](C)CO)C[C@@H]1C,i
C[C@@H]1CN([C@@H](C)CO)C(=O)Cc2cc(NC(=O)CCN3CCOCC3)ccc2O[C@H]1CN(C)S(=O)(=O)c1ccc(F)cc1,i
COc1ccc2c3c(n(C)c2c1)[C@@H](CO)N(C(=O)C1CC1)CC31CCN(C)CC1,i
CN1c2ccc(-c3ccccc3)cc2[C@H]2[C@H](CCN2C(=O)Cc2ccccn2)[C@H]1CO,i
CCCc1cn(CC[C@@H]2CC[C@H](NC(=O)Cc3cccnc3)[C@H](CO)O2)nn1,i
CN(C)C(=O)C[C@@H]1C=C[C@@H](NC(=O)C2CC2)[C@@H](CO)O1,i
COc1ccc(NC(=O)N(C)C[C@@H]2Oc3ccc(NS(=O)(=O)c4ccc(Cl)cc4)cc3CC(=O)N([C@H](C)CO)C[C@H]2C)cc1,i
OC[C@@H]1[C@@H](c2ccc(C#Cc3ccccc3F)cc2)[C@@H]2CN(CC3CCOCC3)CCCCN12,i
O=C(N[C@H]1CC[C@@H](CCNS(=O)(=O)c2ccc(F)cc2)O[C@@H]1CO)c1cccnc1,i
Cc1noc(C)c1NC(=O)Nc1cccc2c1O[C@H](CN(C)Cc1ccc(C(=O)Nc3ccccc3N)cc1)[C@H](C)CN([C@@H](C)CO)C2=O,i
C[C@@H]1CN([C@@H](C)CO)S(=O)(=O)c2ccc(Br)cc2O[C@H]1CN(C)Cc1cncnc1,i
C[C@@H]1CN([C@@H](C)CO)C(=O)Cc2cc(NC(=O)c3ccncc3)ccc2O[C@@H]1CN(C)Cc1ccncc1,i
COC(=O)C[C@H]1CC[C@@H]2[C@@H](COc3ccc(NC(=O)c4cccs4)cc3C(=O)N2C)O1,i
C[C@H]1CN([C@@H](C)CO)C(=O)c2cc(NS(=O)(=O)c3cccs3)ccc2O[C@@H]1CN(C)Cc1ccc(Cl)c(Cl)c1,i
COCC(=O)N(C)C[C@@H]1Oc2ncc(C3=CCCCC3)cc2C(=O)N([C@H](C)CO)C[C@@H]1C,i
C[C@H](CO)N1C[C@H](C)[C@@H](CN(C)C)Oc2cc(-c3cccc(C(=O)N(C)C)c3)ccc2S1(=O)=O,i

# This is a subset; rates above refer to the full screens.
